# Source: PubChem (Broad Institute)
# ALR inh = human ALR oxidase inhibition via reduced H2O2; purified ALR, DTT oxidation, H2O2 HRP-luminol luminescence; inhibition, % (no concentration beside the values); 290,000 compounds, 3.8% hits; AID 485317;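 active = mean and each replicate at 75% or more; inconclusive = only one of the two met; inactive = neither met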;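 also: stock transfer was 7.5 nL into about 7.5 µL; 0% = neutral wells and 100% = wells with inactivated enzyme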
# Target sequence (P55789 whole entry, looked up): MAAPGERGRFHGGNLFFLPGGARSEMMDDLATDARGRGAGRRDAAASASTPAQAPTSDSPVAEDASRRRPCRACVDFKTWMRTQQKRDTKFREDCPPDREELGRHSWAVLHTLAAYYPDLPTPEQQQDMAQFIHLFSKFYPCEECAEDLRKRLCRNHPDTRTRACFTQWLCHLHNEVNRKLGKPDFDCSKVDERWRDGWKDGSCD
# Calb FLC = affects C. albicans growth with fluconazole; growth inhibition, % (test concentration not listed); AID 1979; C. albicans CaCi-2 (fluconazole-resistant clinical isolate) + fluconazole, Alamar Blue growth, 48 h; 300,000 compounds, 0.57% hits;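 active = most replicates above 75%; inconclusive = exactly half above 75%; inactive = most below 75%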;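 also: all wells also contain fluconazole at 8 µg/ml as a sub-toxic cotreatment; 0% = median of DMSO wells and 100% = median of geldanamycin control wells; wells of about 8 µL received 7.5 nL stock; the first replicate is given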
# AF4-AF9 inh = inhibitors of human MLL-AF4/AF9 interaction; AlphaScreen, biotin-AF4 peptide binding to FLAG-AF9; inhibition, % at 10 µM; 350,000 compounds, 0.47% hits; AID 651704;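 active = every replicate reaching a set inhibition limit, whatever the replicate mean, cut at about 25% in these data; inconclusive = mean inhibition reaches that limit but some replicates miss it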;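 also: 0% = plate neutral control median and 100% = total signal loss; the record names both 10 and 1 µM as test concentration; the first replicate is given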
# Target sequence (P42568 whole entry, looked up): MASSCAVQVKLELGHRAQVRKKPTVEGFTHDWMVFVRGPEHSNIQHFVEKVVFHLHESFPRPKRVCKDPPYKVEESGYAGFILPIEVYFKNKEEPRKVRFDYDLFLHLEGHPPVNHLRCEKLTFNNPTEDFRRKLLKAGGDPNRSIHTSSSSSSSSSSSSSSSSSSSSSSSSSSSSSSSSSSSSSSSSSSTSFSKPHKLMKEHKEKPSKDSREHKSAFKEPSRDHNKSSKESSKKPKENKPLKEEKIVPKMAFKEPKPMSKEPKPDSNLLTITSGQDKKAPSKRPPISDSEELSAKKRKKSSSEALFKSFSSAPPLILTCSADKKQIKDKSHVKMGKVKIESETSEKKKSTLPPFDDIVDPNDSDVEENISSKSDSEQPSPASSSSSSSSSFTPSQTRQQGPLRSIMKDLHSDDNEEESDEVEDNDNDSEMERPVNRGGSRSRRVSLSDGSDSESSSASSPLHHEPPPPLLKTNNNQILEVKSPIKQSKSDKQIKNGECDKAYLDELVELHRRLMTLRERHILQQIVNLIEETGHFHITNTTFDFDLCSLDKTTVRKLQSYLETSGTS
# FGF22 binding = binders of recombinant human FGF22 by thermal shift; Q9HCT0; SYPRO orange fluorescence; percent of sucrose octasulfate shift, DMSO zero; calls only at 9.99 µM; 340,000 compounds, 1.5% hits; AID 651658;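 active = melting point raised past a set limit in the mean and every replicate; inconclusive = no clear call; three in four hits are not shown here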
# Target sequence (Q9HCT0 whole entry, looked up): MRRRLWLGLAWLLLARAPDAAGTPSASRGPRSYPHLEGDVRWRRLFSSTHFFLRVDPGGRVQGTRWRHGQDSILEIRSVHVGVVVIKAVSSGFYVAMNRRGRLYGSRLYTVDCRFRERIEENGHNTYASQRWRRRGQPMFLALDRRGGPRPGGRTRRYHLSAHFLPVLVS
# Ecoli rRNA inh = selective bacterial rRNA inhibition in E. coli. E. coli WT GFP vs humanized-ribosome RFP mutants, fluorescence, 24 h; stronger effect = lower value; DMSO median 0, no signal -100. 350,000 compounds, 1.6% hits. GFP signal change (wild-type ribosome), % (concentration not given with the values);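 active = significant combined selectivity score with lowered wild-type GFP, culture density cut under 30%, mutant RFP and density less affected; inactive = any of these conditions unmet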; also: one replicate is shown; some compounds called inactive have numbers as strong as hits
# T cruzi repl = T. cruzi replication inhibition; T. cruzi beta-gal in NIH3T3, luminescence, 90 h; inhibition, % (no concentration beside the values); 300,000 compounds, 1.4% hits; AID 1885;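 active = mean inhibition across valid replicates above about 55%, limit read from the data; inconclusive = mean below that limit but half or more replicates reach it; inactive = mean below it, under half of replicates reach it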;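 also: signal also drops with host cell toxicity which is not excluded here; 0% = plate median of DMSO wells and 100% = zero luminescence signal; higher percent means less beta-gal luminescence so fewer parasites; stock transfer was 50 nL into about 50 µL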
# RanGTP-Impb inh = inhibitors of RanGTP-importin-beta interaction, primary screen, biochemical, FRET, CFP-Ran, YFP-importin-beta, homogeneous. cell-free CFP-Ran/YFP-importin-beta FRET ratio. inhibition, % (concentration not given with the values). 300,000 compounds, 1.1% hits. AID 2216;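 active = most replicates above 15%; inconclusive = exactly half above 15%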;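 also: 0% = DMSO wells and 100% = Ran loaded with GDP instead of GTP; wells of about 40 µL received 100 nL stock; the first replicate is given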
# Beta cell apopt = blocks beta cell apoptosis | protection from apoptosis, % (test concentration not listed) | 300,000 compounds, 0.8% hits | AID 435005 | INS-1E cytokine-induced death, ATP luminescence, 48 h; percent of positive-control rescue, neutral wells zero;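 active = all replicates at 75% or more, or half of them and the mean; inconclusive = half reach 75% but not the mean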;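 also: 0% = cytokine-treated negative control wells and 100% = positive control rescue; higher means more ATP so stronger rescue from cytokine killing; wells of about 40 µL received 100 nL stock; the first replicate is given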
# Ecoli rRNA inh OD600 = also measured in Ecoli rRNA inh; calls as there; OD600 change, %; measured here: OD600 growth;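 optical density of the mix in the first replicate; 0 = DMSO median and -100 = no signal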
# Ecoli rRNA inh RFP = also measured in Ecoli rRNA inh; calls as there; RFP signal change, %; measured here: RFP humanized mutant strains;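 first replicate; 0 = DMSO median and -100 = no signal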
# Starred values were filed as active, the others as inactive; i = inactive; ? = inconclusive; . = no result given; + = active, no number.
(1) COc1cc2c3c(c1OC)C1(C=CC(=NO)C=C1)CC3N(C(C)=O)CC2 (stereo not given)
(2) COc1ccc(C2C(C#N)=C(N)Nc3onc(C(C)(C)C)c32)c(OC)c1 (stereo not given)
(3) Cc1ccc(-c2csc3ncn(CC(=O)N4CCOCC4)c(=O)c23)cc1
(4) N#CCSc1nc2c(c(=O)n1Cc1ccco1)C1(CCCC1)Cc1ccccc1-2
(5) Oc1c(Br)cc(/C=N/Nc2ccc(Cl)nn2)cc1Br
(6) COc1ccc(-n2c(C)cc(/C=C3\SC(=S)N(Cc4ccco4)C3=O)c2C)cc1
(7) Cc1cc(NC(=NC2CC2)c2ccccc2F)n(-c2ccccc2)n1
(8) CC(C)(O)C#Cc1ccc(C(=O)N2CCCC2C(=O)O)s1 (stereo not given)
(9) O=C(Nc1ccccc1)N1CCCCC1c1cccnc1 (stereo not given)
(10) Cc1cc(C)n2c(C)nnc2c1

assay / entry | 1 | 2 | 3 | 4 | 5 | 6 | 7 | 8 | 9 | 10
ALR inh | -4 | 5 | -7 | 0 | . | -12 | -1 | 3 | -6 | .
Calb FLC | -6 | 5 | 1 | 3 | 41 | -32 | -6 | -9 | -1 | 5
AF4-AF9 inh | . | . | . | . | -2.2 | . | -0.9 | . | . | -1.3
FGF22 binding | . | . | . | . | i | . | . | . | . | i
Ecoli rRNA inh | . | . | . | . | -15 | . | 15 | . | . | 9
Ecoli rRNA inh OD600 | . | . | . | . | -7 | . | 4 | . | . | 10
Ecoli rRNA inh RFP | . | . | . | . | -0.3 | . | -0.8 | . | . | -2.6
T cruzi repl | 8 | -6 | -2 | 36 | 5 | 26 | -1 | -2 | 44 | -7
RanGTP-Impb inh | -2.0 | 3.8 | 0.2 | 2.1 | -4.7 | 6.8 | 2.8 | 3.6 | -3.5 | 0.7
Beta cell apopt | 0 | -8 | -3 | 0 | 3 | -2 | -5 | -5 | -2 | .

(11) N#Cc1cccnc1N1CCN(C(=O)c2cccc3c2C(=O)c2ccc(-c4ccc(F)cc4OCc4ccccc4)cc2S3(=O)=O)CC1
(12) O=C(C1CCN(S(=O)(=O)c2c(Cl)cccc2Cl)CC1)N1CCCCCCC1
(13) CCn1c(COc2ccc(=O)n(-c3ccccc3)n2)nnc1SCc1ccccc1
(14) CCCCN(C(=O)Cn1nnc2ccccc21)C(C(=O)NCCOC)c1ccc(OC)cc1 (stereo not given)
(15) COc1ccc(C(=O)Nc2cc(=O)n(C)c(=O)n2C)cc1
(16) CC(=O)c1ccc(NC(=O)Nc2cccnc2)cc1
(17) O=S(=O)(NCc1cccnc1)c1ccc(Br)c2ccccc12
(18) O=C(CSc1ccc2c(c1)OCCO2)NCCN1C(=O)CSC1=O
(19) Cc1ccc(NC(=O)c2ccc(C)c(S(=O)(=O)N3CCOCC3)c2)nc1
(20) Cc1csc(NC(=O)CSc2ccccc2F)n1

assay / entry | 11 | 12 | 13 | 14 | 15 | 16 | 17 | 18 | 19 | 20
ALR inh | -1 | 0 | -4 | -2 | -8 | -8 | 0 | -13 | . | -6
Calb FLC | . | -5 | ? | 3 | 36 | -3 | -3 | 2 | -3 | -35
AF4-AF9 inh | -0.2 | -10 | . | . | 0.4 | -0.3 | 7.9 | . | 1.3 | -1.6
FGF22 binding | i | i | . | . | i | + | i | . | . | i
Ecoli rRNA inh | 3 | -15 | . | . | 13 | -2 | -9 | . | 16 | -11
Ecoli rRNA inh OD600 | 0 | -41 | . | . | 18 | 0 | -12 | . | 4 | -9
Ecoli rRNA inh RFP | -3.4 | -4.5 | . | . | 3.0 | -3.0 | 5.1 | . | 3.2 | -3.4
T cruzi repl | . | 3 | -1 | -16 | -4 | . | -1 | -22 | 5 | -7
RanGTP-Impb inh | . | 4.2 | 8.9 | 0.2 | 7.6 | . | -0.6 | -1.1 | 1.9 | -1.2
Beta cell apopt | 4 | -8 | . | -10 | 2 | 8 | -3 | -9 | . | -8

(21) O=C1Cc2cc(S(=O)(=O)Nc3ccc(F)cc3Cl)ccc2N1
(22) CC(/C=C/C1[C@H](C)C[C@H](O[C@@H]2O[C@H](CO)[C@@H](O)[C@H](O)[C@H]2O)CC1(C)C)O[C@H]1O[C@H](CO)[C@@H](O)[C@H](O)[C@H]1O (stereo not given in full)
(23) COc1ccc2nc(SCC(=O)NC3CCCCC3)[nH]c2c1
(24) CC(C)CCc1noc(CN2CCN(c3ccc(Cl)cn3)CC2)n1
(25) CN1CCN(C(CC(=O)Nc2cccc(O)c2)C(=O)O)CC1 (stereo not given)
(26) O=C(C1=C(O)C(=O)N(c2ncccn2)C1c1ccc(F)cc1)c1ccco1 (stereo not given)
(27) CN(C)CCCNS(=O)(=O)c1ccc(Oc2ncc(C(F)(F)F)cc2Cl)cc1
(28) O=C(CCc1nc(-c2ccccc2)no1)NCC1CCCO1 (stereo not given)
(29) OCCC1CN(CC2CCCCC2)CCN1C1CCCC1 (stereo not given)
(30) COc1ccccc1N1C(=NC(=O)C2CCCCC2)SC2CS(=O)(=O)CC21 (stereo not given)

assay / entry | 21 | 22 | 23 | 24 | 25 | 26 | 27 | 28 | 29 | 30
ALR inh | -3 | . | 53 | -1 | -9 | -4 | . | 66 | 0 | 0
Calb FLC | . | . | -19 | -31 | -3 | -9 | -1 | 2 | -9 | -2
AF4-AF9 inh | -0.9 | -2.4 | -2.4 | 0.6 | . | -4.0 | . | . | -4.4 | 1.3
FGF22 binding | i | i | i | i | . | i | . | . | i | i
Ecoli rRNA inh | -5 | 8 | -6 | 1 | . | 4 | . | . | 11 | 0
Ecoli rRNA inh OD600 | -6 | 3 | 3 | -6 | . | 12 | . | . | 11 | 3
Ecoli rRNA inh RFP | 3.1 | 9.8 | 9.8 | -0.2 | . | 2.9 | . | . | 4.9 | -1.2
T cruzi repl | . | . | -16 | 13 | -2 | 10 | 35 | -4 | 5 | 0
RanGTP-Impb inh | . | . | -2.3 | -1.6 | 2.8 | -1.5 | 2.2 | 3.5 | ? | 3.4
Beta cell apopt | -3 | -2 | -1 | 1 | -5 | -2 | 13 | 4 | 5 | -2

(31) CC(C)COC(=O)n1c(SCC(=O)N(C)C)nc2ccccc21
(32) C=CCC(CC(O)COCCC)C(=O)NNC(=S)Nc1ccccc1 (stereo not given)
(33) COc1ccc(-c2cc(-c3ccc(O)cc3)nc(N)c2C#N)cc1
(34) O=C(NN=C1CCCCCC1)NC1CCCCC1
(35) COc1ccc(Cn2c(CCCO)nc3ccccc32)cc1OC
(36) O=[N+]([O-])c1ccc(OCC(O)CNCCNc2nccc(C(F)(F)F)n2)cc1 (stereo not given)
(37) CC(C)(C)c1cc(NC(=O)COC(=O)c2nccnc2N)n(-c2ccccc2)n1
(38) O=C(Nc1cccc([N+](=O)[O-])c1)Nc1ccc2c(c1)CCC2
(39) O=C(Nc1ccc(Cl)cc1)Nc1csc([N+](=O)[O-])c1
(40) COc1ccc(/C=C(\C#N)C(=O)OCC(=O)Nc2ccc(C(C)(C)C)cc2)cc1

assay / entry | 31 | 32 | 33 | 34 | 35 | 36 | 37 | 38 | 39 | 40
ALR inh | 0 | 98* | 55 | -1 | -7 | -6 | 24 | 19 | -1 | .
Calb FLC | 9 | -6 | -5 | -6 | 9 | 0 | -6 | -14 | -13 | 3
AF4-AF9 inh | . | 1.5 | -5.4 | . | . | 4.4 | -5.6 | 0.1 | 3.2 | .
FGF22 binding | . | i | i | . | . | i | i | i | i | .
Ecoli rRNA inh | . | 11 | -9 | . | . | -14 | 17 | -3 | -47 | .
Ecoli rRNA inh OD600 | . | 6 | -23 | . | . | -3 | 6 | 3 | -55 | .
Ecoli rRNA inh RFP | . | 2.6 | 2.1 | . | . | 2.3 | 4.3 | 0.6 | -11 | .
T cruzi repl | -5 | -3 | -1 | 2 | -5 | 28 | -8 | 57* | 30 | 13
RanGTP-Impb inh | 2.6 | -0.2 | -0.9 | 0.6 | 5.0 | -0.8 | 1.2 | -0.5 | -2.1 | -1.4
Beta cell apopt | -2 | -2 | . | -1 | -4 | -7 | . | 36 | 80* | -5

(41) COc1ccc(NC(=O)Nc2ccc(N3CCOCC3)c3nonc23)c(OC)c1
(42) CN(C)[C@@H](CO)c1nnc([C@H](CCC(=O)O)NC(=O)C2CCNCC2)o1
(43) CSCCC(NC(=O)c1ccccc1Br)C(=O)NCC(c1ccco1)N1CCCCC1 (stereo not given)
(44) Cc1ccc(-n2c(C)cc(C=C(C#N)C#N)c2C)cc1
(45) CC1=NN(C(=O)CCc2ccccc2)C(c2ccccc2)C1 (stereo not given)
(46) CCOC(=O)c1[nH]c2c(c1-c1ccccc1)C(=O)CC(c1ccc(OC)c(OC)c1)C2 (stereo not given)
(47) O=C(NC1CCCCCC1)C(=S)NCc1ccccc1
(48) CC(CNC(=O)C1CCCCC1)NC(=O)C1CCCCC1 (stereo not given)
(49) O=C(NCCCCl)C1CC(=O)N(CCc2ccc(F)cc2)C1 (stereo not given)
(50) Cc1ccc(C(=O)CCC(=O)Nc2ccccc2C)c(C)c1
(51) CC1(OCON)CCCc2ccccc21 (stereo not given)
(52) O=C(CCN1C(=O)C2C3C=CC(C3)C2C1=O)NCCc1ccccc1 (stereo not given)

assay / entry | 41 | 42 | 43 | 44 | 45 | 46 | 47 | 48 | 49 | 50 | 51 | 52
ALR inh | . | -19 | -1 | -3 | 1 | -3 | 0 | 3 | . | 0 | -16 | .
Calb FLC | 1 | 5 | 2 | 1 | -5 | 5 | -5 | 10 | 4 | 4 | -11 | -3
AF4-AF9 inh | 0.2 | 4.2 | -0.2 | . | -2.7 | 0.3 | 0.7 | -28 | 1.9 | -3.9 | -2.8 | .
FGF22 binding | i | i | . | . | i | i | i | i | i | i | i | .
Ecoli rRNA inh | 7 | 15 | 8 | . | -6 | -7 | -30 | 7 | 18 | 6 | 6 | .
Ecoli rRNA inh OD600 | 2 | 1 | 11 | . | -5 | -9 | -31 | 4 | 7 | 7 | 18 | .
Ecoli rRNA inh RFP | 0.0 | -2.5 | 2.2 | . | -0.7 | 3.0 | -2.3 | -3.4 | 1.8 | 1.3 | 4.8 | .
T cruzi repl | 3 | -6 | 0 | -2 | 0 | 8 | 12 | 3 | -2 | -12 | -2 | 20
RanGTP-Impb inh | -4.5 | -0.5 | 2.3 | 0.5 | -2.5 | 1.3 | -0.8 | 2.8 | -2.9 | -2.0 | 3.7 | -2.7
Beta cell apopt | 4 | -5 | -2 | -2 | -3 | 8 | -1 | -2 | -2 | -4 | -3 | -4

# Some of the compounds tested (hit frequency here may not be typical).
